MT1-MMP reporter: inhibitors of MT1-MMP promoter transcription, cell-based, luciferase reporter, luminescence (AID 618); MT1-MMP promoter luciferase reporter cells, luminescence; 87,000 tested, 0.62% active; calls from a first round at 10 µM; hits with a dose series show EC50 in µM;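 active means over half of the reporter light lost at 10 µM or EC50 under 50 µM; inactive means the rest and hits that failed the dose series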;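 further: actives suppress MT1-MMP promoter-driven transcription so potencies describe inhibitors; HT1080 fibrosarcoma cells; overnight exposure; toxic or luciferase-blocking compounds were not removed from the actives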
Calls only; i = inactive. These rows are one share of the data; count on the stated rates, not on these rows.

SMILES	MT1-MMP reporter
CC(C)(C)C1CCC(OC(=O)CN2CCOCC2)CC1 (stereo not given)	i
CC(C)(C)NCCOc1ccc(Br)cc1	i
C[C@@H](C(=O)Nc1ccc2ccccc2c1)[C@H]1C[C@]1(C)[C@H](NS(=O)(=O)c1ccc2ccccc2c1)c1ccccc1	i
CCN1CCN(C(=O)c2ccc(Cn3c(=O)[nH]c4cc(OC)c(OC)cc4c3=O)cc2)CC1	i
O=C(NCc1ccccn1)[C@@H]1C[C@H]1[C@@H](NP(=O)(c1ccccc1)c1ccccc1)c1ccccc1	i
O=C(CSc1nc2ccccc2[nH]1)Nc1ccc(F)c(F)c1	i
COC(=O)c1ccc(C(/C=C/[C@@H](C)C(=O)N(C)C)NC(=O)OCc2ccccc2)cc1 (stereo not given in full)	i
COC(=O)[C@@H]1C[C@H]2CC[C@H](O)C[C@H]2N1Cc1ccc(N2CCOCC2)cc1	i
Cc1ccc2c(c1)C(=O)CCN2	i
CCc1ccc(NC(=O)c2sccc2-n2cccc2)cc1	i
O=C1C(Cl)=C(N2CCN(Cc3ccccc3)CC2)C(=O)N1Cc1ccccc1	i
Cc1ccc(CNC(=O)[C@H](C)[C@@H]2C[C@@]2(C)[C@@H](NC(=O)OCc2ccccc2)c2ccccc2)o1	i
Cc1nnsc1C(=O)Nc1ccc(Cl)cc1Cl	i
CCOC(=O)CCc1c(C)c2ccc(OCC)c(C)c2oc1=O	i
COC(=O)C1CCN(C(=O)CCC2CCCCC2)CC1	i
Cc1ccc(C2=NC(C)(C)NC2=O)cc1	i
Cc1cc2ncn(C3CC(=O)N(C)C3=O)c2cc1C (stereo not given)	i
CCC1=C2CC[C@H]3C(=O)NC(=O)[C@H]3[C@H]2[C@@]2(C)C(=O)N(CC3CC3)C(=O)N2C1=O	i
Cc1ccc2cc3cc(C(=O)N4CCN(Cc5ccccc5)CC4)sc3nc2c1	i
CCOc1ccc(N(CC)C(=O)CCNC(=O)Cn2ccc3ccccc3c2=O)cc1	i
COc1ccc(C2NC(=O)C(C)S2)cc1 (stereo not given)	i
O=c1oc2cc(Cl)ccc2n1CSc1nc2ccccc2s1	i
CC1(C(=O)NCCN2CCOCC2)C=CCN1C(=O)c1ccccc1 (stereo not given)	i
O=C(NCCOc1ccccc1)c1ccccc1	i
CSc1nc(-c2ccco2)nn1C(=O)CCc1ccccc1	i
Brc1ccc(C2=CC(c3ccco3)n3ncnc3N2)cc1 (stereo not given)	i
CCN1CCN(C(=O)c2cc3cc4ccc(OC)cc4nc3s2)CC1	i
COCCCNC(=O)CNC(=S)N(Cc1ccc(F)cc1)C1CCCCC1	i
O=C(NCC#CCOCc1ccccc1)c1ccccc1	i
O=C(Nc1nnc(C2CC2)s1)c1ccc(S(=O)(=O)c2ccccc2)cc1	i
Cc1nnc(C)n1/N=C/c1ccccc1	i
COC(=O)[C@@]1(Cc2ccccc2)[C@H]2c3cc(C(=O)N4CCCC4)n(Cc4ccsc4Br)c3C[C@H]2CN1C(=O)c1ccccc1	i
CSc1ccccc1C(=O)Nc1cc(C)cc(C)c1	i
CCC(C)NC(=O)C1c2ccccc2C(=O)N(c2ccc(OC)cc2)C1c1ccc(OC)cc1 (stereo not given)	i
Cc1ccc(NC(=O)Cn2c(=O)n(Cc3ccco3)c(=O)c3ccccc32)c(C)c1	i
O=C(NCCc1c[nH]c2ccccc12)[C@@H]1C[C@H]1[C@@H](NP(=O)(c1ccccc1)c1ccccc1)c1ccccc1	i
COc1ccc(Nc2nc(N)nc(CSc3nncn3C)n2)cc1	i
CC(C)c1ccc(C(=O)CSc2n[nH]c(-c3ccncc3)n2)cc1	i
C[C@@H](C(=O)NCc1ccccc1)[C@@H]1C[C@@]1(C)[C@@H](NC(=O)OCc1ccccc1)c1ccccc1	i
COc1ccc(CC(=O)N2CC3(C)CC2CC(C)(C)C3)cc1 (stereo not given)	i
Clc1cccc(Cl)c1COn1nnc2ccccc21	i
O=Cc1ccc(OC(=O)C2CC(=O)N(c3ccc(F)cc3)C2)cc1 (stereo not given)	i
CCCCC(=O)Nc1ccc(C(=O)Nc2nc(CC(=O)OCC)cs2)cc1	i
CC(Sc1ccsc1[N+](=O)[O-])C(=O)NCCc1ccc(Cl)cc1 (stereo not given)	i
CC1=C(C(=O)OCc2ccccc2)C(c2ccc3c(c2)OCO3)NC(=O)N1CCCC(=O)O (stereo not given)	i
CCCn1c(/N=C/c2ccccc2O)nc2ccccc21	i
CCC(=O)N1CCN(c2ccc(NC(=O)c3ccc(-c4ccccc4)cc3)cc2)CC1	i
COc1ccc(NC(=O)CN(Cc2ccccc2)S(C)(=O)=O)c(OC)c1	i
CCOC(=O)C(/C=N/c1cc(C)nn1-c1ccccc1)=C(\C)O	i
CCOC(=O)C1=C(C)N(CCCC(=O)O)C(=O)NC1c1ccccc1OS(=O)(=O)c1ccc(C)cc1 (stereo not given)	i
COc1ccc(-c2noc(CSc3nnc(Cc4ccccc4)n3-c3ccc(Cl)cc3)n2)cc1	i
CN1CCN(Cc2cccc(Oc3ccc(Cl)cc3)c2)CC1	i
CCN(CC)S(=O)(=O)c1ccc2nc(SC)sc2c1	i
CCOc1ccc2c(C)c(C)c(=O)oc2c1OCC	i
CNC(=O)c1sccc1S(=O)(=O)Cc1c(Cl)cccc1Cl	i
CCn1c(C)c2c([n+]1CC)CC(C)(C)CC2=O	i
COC(=O)[C@@H]1C[C@@]2(O)[C@@H](O)[C@@H](O)[C@@H](O)C[C@H]2N1Cc1ccc(Cl)cc1	i
CC(=O)Nc1ccc(S(=O)(=O)N2CCN(C(=O)c3cccnc3)CC2)cc1	i
COc1ccccc1Nc1nc(=O)[nH]nc1C	i
CCNS(=O)(=O)c1ccc(NC(=O)c2ccccc2)cc1	i
The list goes on.
SMILES	MT1-MMP reporter
CCC/C=C(\CCC)C(NS(=O)(=O)c1cccc2cccnc12)c1ccc(C(=O)OC)cc1 (stereo not given)	i
COC(=O)c1ccc(CN2[C@@H]3C[C@@H](O)CC[C@@H]3C[C@H]2C(=O)OC)cc1	i
Cc1ccc(S(=O)(=O)N(C)c2ccc(N)cc2)cc1	i
COc1ccc(C(=O)c2nc3c(n2O)CCCC3)cc1OC	i
O=S(=O)(Nc1ccc(S(=O)(=O)Nc2ccccc2)cc1)c1ccccc1	i
Cc1ccc(C(=O)Nc2sc3c(c2C(=O)NCc2ccco2)CCCC3)cc1	i
CC1CCC(C(=O)NC(C(=O)NCc2cccnc2)C(C)C)CC1 (stereo not given)	i
CCOC(=O)Nc1ccc(C)cc1NC(=O)OCC	i
COc1ccccc1-c1cc(C(F)(F)F)nc(S(=O)(=O)CCCC(=O)O)n1	i
Cc1nc2c(cnn2-c2ccccc2Cl)c(=O)n1-c1ccc(N2CCC(C)CC2)cc1	i
O=C1C=C(NCc2ccc(Cl)cc2Cl)C2(CCCCC2)O1	i
O=C(O)c1ccc(Sc2nnc(-c3cccc(Br)c3)o2)c([N+](=O)[O-])c1	i
Nc1cccc(Nc2nc(OC(C(F)(F)F)C(F)(F)F)nc(OC(C(F)(F)F)C(F)(F)F)n2)c1	i
CC1=CC(C)(C)N(C(=O)C(C)N2C(=O)c3ccccc3C2=O)c2ccc(C)cc21 (stereo not given)	i
COC(=O)C1CCN(C(=O)/C=C/c2ccc(OC)cc2)CC1	i
S=C(Nc1ccc2c(c1)OCO2)NC1CCN(Cc2ccccc2)CC1	i
CC(=O)N1[C@H](C)C=C[C@]1(Cc1ccccc1)C(=O)NCCN1CCOCC1	i
CCOc1ccc(CCNC(=O)c2cc3sccc3n2CC)cc1OCC	i
CC(C)(C)C1CCc2c(sc(NC(=O)c3cccs3)c2C(=O)N2CCCCC2)C1 (stereo not given)	i
COc1ccc(NC(=O)c2cc3c(-c4ccc(OC)c(OC)c4)nn(C)c3s2)cc1OC	i

Next section; it opens with the 3 that closed the last part.
SMILES	MT1-MMP reporter
CCOc1ccc(CCNC(=O)c2cc3sccc3n2CC)cc1OCC	i
CC(C)(C)C1CCc2c(sc(NC(=O)c3cccs3)c2C(=O)N2CCCCC2)C1 (stereo not given)	i
COc1ccc(NC(=O)c2cc3c(-c4ccc(OC)c(OC)c4)nn(C)c3s2)cc1OC	i
Cc1ccnc(SCC(=O)N2CCN(C(c3ccccc3)c3ccccc3)CC2)n1	i
COc1ccc(-n2c(SCC(=O)NC3CCCCC3)nc3ccsc3c2=O)cc1	i
CCC1=C(OC(=O)N(CC)CC)N2C(=O)OC(=NCC(=O)OC)[C@]2(Cc2ccccc2)[C@H]2C1=CC[C@H]1C(=O)N(CC(=O)OC)C(=O)[C@H]12	i
C[C@@H](C(=O)Nc1ccc2ccccc2c1)[C@H]1C[C@]1(C)[C@H](NC(=O)Oc1ccc(F)cc1)c1ccccc1	i
CCC1=C2CC[C@H]3C(=O)NC(=O)[C@H]3[C@H]2[C@@]2(Cc3ccccc3)C(=NCC(=O)OC)OC(=O)N2C1=O	i
Oc1ccc(-c2nc3ccccn3c2NCc2ccco2)cc1	i
O=C(Nc1ccc(N2CCCC2)cc1)C(Cl)c1ccccc1 (stereo not given)	i
CN1C[C@@H]2C(c3ccccc3)C3(c4ccc(C#N)cc4)CC2(C3)[C@H]1c1ccccc1 (stereo not given in full)	i
O=C1NN(c2ccc(F)c(Cl)c2)C(=O)/C1=C\c1cccc(OC(=O)c2cccs2)c1	i
O=C1NC2(CCCC2)N=C1c1ccc(F)cc1	i
CCCCCn1c(=O)[nH]c2cc(C(=O)NCCc3ccc(OC)c(OC)c3)ccc2c1=O	i
O=C(Nc1ccc(C(F)(F)F)cc1)c1cccnc1N1CCOCC1	i
COC(=O)[C@@]1(Cc2ccccc2)[C@H]2c3cc(C(=O)N(C)C)n(Cc4c(CO)[nH]cc(C)c4=O)c3C[C@H]2CN1C(=O)c1ccccc1	i
O=C1CCCc2c1nc(-c1cccc(Cl)c1)n2O	i
CCc1cccc(NC(=O)Cc2cn(C)c3ccccc23)c1	i
CC1=Nc2ccccc2/C1=C/c1sc(=N)n(-c2nccs2)c1O	i
CC(=O)N[C@@H](c1ccccc1)[C@]1(C)C[C@H]1[C@@H](C)C(=O)Nc1ccc2ccccc2c1	i
CCCN1Cc2cccc(C(=O)N3CCN(c4ccc(F)cc4)CC3)c2C1=O	i
Cc1onc(-c2ccccc2Cl)c1C(=O)N(Cc1nc(-c2ccccc2)no1)C1CCCCC1	i
C=CCc1cccc(OC)c1OCCOCCNCCO	i
COC(=O)[C@@]1(Cc2ccc(OC)cc2)[C@H]2c3cc(C(=O)N(C)C)n(Cc4ccsc4Br)c3C[C@H]2CN1C(=O)c1ccccc1	i
CN1CCN(c2ccccc2NC(=O)COc2ccccc2)CC1	i
CCCN(CCC)S(=O)(=O)c1ccc(C(=O)N2CCCc3ccccc32)cc1	i
COC(=O)[C@@]1(Cc2ccc(F)cc2)[C@H]2c3cc(C(=O)N4CCCC4)n(Cc4cc(C)n(C)n4)c3C[C@H]2CN1C(=O)c1ccccc1	i
COC(=O)[C@@H]1C[C@@]2(O)[C@H](O)[C@H](O)[C@H](O)C[C@H]2N1Cc1ccc(-c2ccccc2)cc1	i
COc1ccccc1C(=O)Nc1ccc(CN2CCCCC2)cc1	i
CC(=O)c1cccc(Nc2nc(=O)c3cccnc3s2)c1	i
COC(=O)c1cccc(C23CC4(C2)[C@H](CN(CC2CCCCC2)[C@@H]4c2ccccc2)C3c2ccccc2)c1 (stereo not given in full)	i
CC1=C(C(=O)OCC(Br)(Br)Br)C(c2cccc3ccccc23)NC(=O)N1CCCC(=O)O (stereo not given)	i
Cc1ccccc1S(=O)(=O)c1c(C)cc(C)n(CC(C)C)c1=O	i
CCOc1ccc(C(C)NC(=O)Nc2ccccc2C(=O)OC)cc1 (stereo not given)	i
Nc1cc(=O)[nH]c(=O)n1Cc1ccccc1	i
O=C(NCc1cccnc1)c1cccc2c1C(=O)N(Cc1cccnc1)C2	i
COC(=O)c1ccc(C23CC4(C2)[C@H](CN(Cc2ccc(C(F)(F)F)cc2)[C@@H]4c2ccccc2)C3c2ccccc2)cc1 (stereo not given in full)	i
O=C1N(Cc2ccccc2F)c2ccccc2C12OCCCO2	i
Cc1ccc(N2C(=O)CSC2c2ccccn2)cc1Cl (stereo not given)	i
O=C(CSCc1cccc(Cl)c1)NCc1ccc2c(c1)OCO2	i
O=C(CNc1cccc2ccccc12)N/N=C/C(Br)=C/c1ccccc1	i
NC(=O)C(c1ccc(Cl)cc1)c1ccc(Sc2ccccc2)nn1 (stereo not given)	i
COC(=O)[C@@]1(Cc2ccc(F)cc2)[C@H]2c3cc(C(=O)N4CCCC4)n(Cc4ccccc4)c3C[C@H]2CN1C(=O)c1ccccc1	i
COc1ccc(Cl)cc1NC(=O)CSc1nnc(CN2CCOCC2)n1-c1ccc(Cl)cc1	i
Fc1cccc(C2NC(=S)NC3=C2N2CCC3CC2)c1 (stereo not given)	i
Cc1ccc(-c2noc(CN3CCN(C(c4ccccc4)c4ccccc4)CC3)n2)cc1	i

Molecules shown so far that have an aryl thioether with sulfur outside any ring, in the order listed:
SMILES	MT1-MMP reporter
O=C(CSc1nc2ccccc2[nH]1)Nc1ccc(F)c(F)c1	i
O=c1oc2cc(Cl)ccc2n1CSc1nc2ccccc2s1	i
CSc1nc(-c2ccco2)nn1C(=O)CCc1ccccc1	i
CSc1ccccc1C(=O)Nc1cc(C)cc(C)c1	i
COc1ccc(Nc2nc(N)nc(CSc3nncn3C)n2)cc1	i
CC(C)c1ccc(C(=O)CSc2n[nH]c(-c3ccncc3)n2)cc1	i
CC(Sc1ccsc1[N+](=O)[O-])C(=O)NCCc1ccc(Cl)cc1 (stereo not given)	i
COc1ccc(-c2noc(CSc3nnc(Cc4ccccc4)n3-c3ccc(Cl)cc3)n2)cc1	i
CCN(CC)S(=O)(=O)c1ccc2nc(SC)sc2c1	i
O=C(O)c1ccc(Sc2nnc(-c3cccc(Br)c3)o2)c([N+](=O)[O-])c1	i
Cc1ccnc(SCC(=O)N2CCN(C(c3ccccc3)c3ccccc3)CC2)n1	i
COc1ccc(-n2c(SCC(=O)NC3CCCCC3)nc3ccsc3c2=O)cc1	i
NC(=O)C(c1ccc(Cl)cc1)c1ccc(Sc2ccccc2)nn1 (stereo not given)	i
COc1ccc(Cl)cc1NC(=O)CSc1nnc(CN2CCOCC2)n1-c1ccc(Cl)cc1	i
